Compound activity (PubChem)
miR-21 reporter = raises the signal of a miR-21 reporter; Potency, µM (top dose mostly 38.3 µM), for the others: at the top dose reporter change, positive = more light; 340,000 tested, under 10 active; HeLa miR-21 FLuc reporter, luciferase, 48 h; active = well fitted rising curve with a large enough effect; inconclusive = small, poorly fitted or top-dose-only effect; inactive = no such curve, though single readings can be large or run the other way;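 note: % of control where 0% means no effect; miR-21 action dims this reporter so a rising signal means less miR-21 action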
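HeLa cells endogenously expressing miR-21, stably carrying CMV-driven firefly luciferase with a downstream miR-21 binding site, 2000 cells/well. Titrations up to approximately 40 uM, 48 hours; luciferase luminescence read.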
GLA inh pH 4.5 = blocks human alpha-galactosidase A at pH 4.5; P06280; AID 1467; purified enzyme, 4-MU-alpha-Gal fluorescence, pH 4.5; 230,000 tested, under 10 active; activity change, negative = inhibition, % at 105 µM; inconclusive = small, poorly fitted or top-dose-only inhibition, or a rising curve; inactive = flat fitted curve, though single readings scatter; no compound was filed as active;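 note: 0% = full activity with enzyme and -100% = basal without enzyme; dose as in the result columns while the protocol names 77 µM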
Rango release inh = inhibition of RanGTP-driven Rango-importin beta dissociation; O95149+P62826; Biochemical FRET Rango-importin beta, RanGTP-induced dissociation; Potency, µM (titrated, usually from 46.1 µM), for the others: top-dose activity change, negative = inhibition; 340,000 compounds, 0.071% hits; AID 540253; active means falling FRET ratio curve, often poorly fitted, with flat reads before Ran was added; inconclusive means other falling curves, or compound fluorescence or quenching; inactive means flat or rising ratio curve;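 note: potency is the fitted concentration of half-maximal effect; % of control where 0% means no effect; nearly all actives have a fitted effect of over 45% in size; -100% = wells without RanGTP and RCC1; the record marks most hits as doubtful in a second field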
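Rango FRET biosensor (snurportin-1 IBB flanked by N-terminal EYFP and C-terminal CFP10) at 0.1 uM, with 0.25 uM importin beta in PBS, 1mM DTT, 0.02% Tween-20, 0.1% BSA. 0.6 uM Ran, 2mM GTP and 0.2 uM RCC1 were then added for 45 min at room temperature. Inhibition read as loss of FRET rise.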
Rango complex inh = inhibitors of Rango-importin beta complex formation. Rango CFP/YFP FRET sensor + importin beta, 45 min. Q14974. Potency, µM (titrated, usually from 92.2 µM), for inactives: at the top dose inhibition of complex formation. 340,000 compounds, 0.031% hits; active = rising FRET ratio curve, often small or poorly fitted; inconclusive = mostly compound fluorescence or quenching in the first reads; inactive = flat curves in all reads;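 note: potency is the fitted concentration of half-maximal effect; 0% = DMSO wells and 100% = buffer wells lacking importin beta; nearly all actives have a fitted effect of over 15% in size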
Target sequence (Q14974 whole entry, looked up): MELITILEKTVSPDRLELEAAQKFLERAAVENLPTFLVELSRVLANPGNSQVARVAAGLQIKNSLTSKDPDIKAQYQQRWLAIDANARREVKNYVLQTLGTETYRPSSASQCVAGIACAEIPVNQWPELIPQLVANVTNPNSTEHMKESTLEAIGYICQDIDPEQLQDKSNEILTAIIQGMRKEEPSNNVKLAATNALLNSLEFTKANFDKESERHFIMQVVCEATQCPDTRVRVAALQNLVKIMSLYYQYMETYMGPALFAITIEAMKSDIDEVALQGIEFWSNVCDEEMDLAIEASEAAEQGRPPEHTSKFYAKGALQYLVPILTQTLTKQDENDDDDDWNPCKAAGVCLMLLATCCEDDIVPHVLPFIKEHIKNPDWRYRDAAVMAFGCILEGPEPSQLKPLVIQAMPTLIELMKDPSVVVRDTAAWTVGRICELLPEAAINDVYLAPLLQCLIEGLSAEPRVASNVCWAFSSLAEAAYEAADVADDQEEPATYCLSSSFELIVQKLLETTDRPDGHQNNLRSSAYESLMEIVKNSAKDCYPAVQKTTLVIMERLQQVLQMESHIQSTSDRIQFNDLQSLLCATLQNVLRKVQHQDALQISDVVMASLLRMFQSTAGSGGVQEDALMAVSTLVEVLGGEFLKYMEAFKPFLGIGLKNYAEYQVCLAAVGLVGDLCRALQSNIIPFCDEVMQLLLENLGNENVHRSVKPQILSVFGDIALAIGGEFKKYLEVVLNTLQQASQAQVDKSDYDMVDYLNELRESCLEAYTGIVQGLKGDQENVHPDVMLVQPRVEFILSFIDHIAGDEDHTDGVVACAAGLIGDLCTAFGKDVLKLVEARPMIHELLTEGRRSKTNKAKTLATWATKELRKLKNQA
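FRET biosensor (snurportin 1 IBB flanked by EYFP and cerulean), 50 nM, with compound 5 min, then 0.125 microM importin beta in PBS, 1 mM DTT, 0.02% Tween-20, 0.1% BSA. CFP/YFP ratio read after 45 min at room temperature; pre-read flags interference.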
* hit, by the source's call; ? = inconclusive; / = no result given; & = joins results of further samples. Only part of the results is shown; rates above refer to the full screens.

Each structure is followed by: miR-21 reporter | GLA inh pH 4.5 | Rango release inh | Rango complex inh
Cc1ccc(NC(=O)C2CC(=O)n3c(nc4ccccc43)N2)cc1 (stereo not given)
  -1% | 4 | -12% | 2.8%
CC(C)CCNC(=O)CSc1nc2ccccc2s1
  4% | 0 | 5% | 0.5%
O=C(CCNS(=O)(=O)c1ccccc1C(F)(F)F)NNC(=O)C1COc2ccccc2O1 (stereo not given)
  / | / | -4% | 1.0%
CCCCN(Cc1cccs1)S(=O)(=O)c1ccc(-c2ccc(=O)[nH]n2)s1
  -11% | / | 10% | -3.2%
Cc1nn(CC(=O)Nc2ccc3nc4n(c(=O)c3c2)CCCC4)c(C)c1[N+](=O)[O-]
  0% | / | 1% | -0.1%
CCOC(=O)CSc1nc2c(c(=O)n1-c1ccc(OC)cc1)SCC2
  -6% | 6 | 3% | -4.2%
CC1(C)CC(=O)c2ccc(O)cc2O1
  1% | 13 | -1% | -1.2%
Cc1ccc(S(=O)(=O)N2CCCCC2)cc1NC(=O)Cn1ccsc1=N
  4% | -2 | -11% | 0.1%
Cc1ccc2nc(SCC(=O)NCc3ccccc3)nc(=O)n2c1
  / | / | -4% | -0.9%
CC(C)OC(=O)/C(=C\c1cccc2ccccc12)NC(=O)c1ccccc1
  -8% | -8 | 1% | 7.4%
Cc1ccccc1NS(=O)(=O)CCCCC(Cl)(Cl)Cl
  -1% | -9 | ? | -1.4%
O=C(COc1ccc(Br)cc1)Nc1ccc(S(=O)(=O)Nc2ccccn2)cc1
  -3% | / | -3% | 0.8%
C=CCNC(=S)NNC(=O)c1cccn(Cc2ccc(Cl)cc2)c1=O
  -6% | -7 | 4% | 0.6%
COc1ccccc1C(=O)NNC(=O)c1cccc(C)c1
  -42% | / | 20% | 1.9%
COc1ccc(NS(=O)(=O)c2ccc(NC(=S)NC(=O)c3ccc(F)cc3)cc2)nn1
  -10% | -15 | -27% | 4.6%
Cc1cc(C(=O)Nc2cccc3ccccc23)c(C)o1
  -18% | / | -1% | -2.8%
Cc1ccc2cc3c(nc2c1)N(c1ccccc1)CC3
  -2% | ? | 9% | 0.0%
Cc1cccc(-n2cc(CN3CCN(C(=O)c4ncn[nH]4)CC3)c(-c3cccc(F)c3)n2)c1
  -18% | -4 | -22% | -1.4%
Cc1ccc(S(=O)(=O)N2CCCCC2)cc1NS(=O)(=O)c1ccc(Cl)c(C(=O)O)c1
  / | / | 11% | 3.3%
CSc1ccccc1C(=O)OCC(=O)N1CCN(C(C)=O)CC1
  / | / | -6% | 6.6%
Nc1c(C(=O)N2CCCC2)sc2nc(-c3ccccc3)ccc12
  -74% | -6 | ? | ?
C[C@@H](C[C@@H](O)[C@H](O)C(C)(C)O)[C@@H]1CC[C@]2(C)C3=CC[C@H]4C(C)(C)C(=O)CC[C@]4(C)[C@H]3CC[C@@]12C
  1% | -21 | -17% | -3.5%
COc1cc(C(C)=O)ccc1Oc1ncnc2c1cnn2-c1ccccc1
  -19% | -2 | -8% | -6.3%
Cc1cnc(NC(=O)c2nn(C)cc2[N+](=O)[O-])s1
  -10% | 4 | -6% | -1.6%
O=C(CSc1ccc(-c2nc3ccccc3[nH]2)cn1)N1CCN(C(=O)c2ccco2)CC1
  21% | -4 | -5% | -6.5%
CN(C)c1ccc(CNC(=O)c2ccc(CNc3c(N4CCCCC4)c(=O)c3=O)cc2)cc1
  -4% | -1 | 20% | -2.6%
COc1ccc(C(=O)Oc2c(CN3CCOCC3)cc(Cl)c3cccnc23)cc1OC
  / | / | -18% | 0.7%
CC(Oc1ccccc1)C(=O)N1CCC2(CC1)Oc1ccc(F)cc1C(=O)C21CC(c2ccc(Cl)cc2)=NO1 (stereo not given)
  / | / | 2% | 0.7%
O=C(O)c1ccc(-c2noc(-c3cccc(F)c3)n2)cc1
  / | / | 17% | -4.5%
CN(C)S(=O)(=O)c1ccc(C(=O)OCC(=O)Nc2ccccc2OC(F)F)cc1
  1% | -1 | 8% | -0.4%
NS(=O)(=O)c1ccc(CNC(=O)c2cccc(S(=O)(=O)N3CCc4ccccc43)c2)cc1
  / | / | 15% | -1.7%
CCOc1ccc(-n2c(SC(C)C)nc3c(c2=O)SCC3)cc1
  13% | -3 | -10% | 0.0%
Cc1ccccc1C(=O)Nc1cccc(-c2ccc3nncn3n2)c1
  0% | 2 | -10% | -1.9%
CCn1c(=O)n(CC)c2cc(S(=O)(=O)Nc3ccccc3C)c(C)cc21
  -1% | 1 | -13% | 0.0%
Cc1cccc(NC(=O)/C(C#N)=C\c2cn(CC(=O)O)c3ccccc23)c1
  -1% | 6 | -23% | -2.6%
CC(C)Cn1c(C(C)C)nc([N+](=O)[O-])c1Sc1ccc(Cl)cn1
  -2% | -15 | 0% | -2.0%
O=C(CSc1nc(Nc2ccccc2)nc(N2CCOCC2)n1)Nc1ccc2c(c1)OCCO2
  -15% | 0 | -2% | -0.8%
COc1ccccc1Oc1ccc2c(c1)C(=O)N(c1ccc(Br)c3cccnc13)C2=O
  -2% | 0 | -11% | ?
COC(=O)c1ccc(O)c(Sc2cc(C(=O)OC)ccc2O)c1
  3% | -4 | -9% | 1.0%
Cn1cc(S(=O)(=O)CC(=O)Nc2ccc3c(c2)OCCO3)c2ccccc21
  -24% | 4 | 1% | 2.2%
CCOC(=O)[C@H]1[C@H]2COc3ccc(Cl)cc3[C@@H]2N2C(=O)c3cc(C)ccc3NC(=O)[C@@]12C
  / | / | 18% | 3.6%
COC(=O)C1(C)NC(c2ccc(O)cc2)C2C(=O)N(c3ccc(C)cc3)C(=O)C21 (stereo not given)
  0% | / | -11% | -0.1%
O=C(O)c1ccc(CN2C(=O)CSC2=S)cc1
  -4% | 8 | -9% | -1.3%
Cc1ccc(N2C(=O)C3NN=C(C(=O)OCc4ccccc4)C3C2=O)c(C)c1 (stereo not given)
  0% | -4 | 14% | -0.7%
CCC(C)Nc1nc(SC(C(C)=O)C(C)=O)nc(N(C)C)n1 (stereo not given)
  -2% | -1 | -11% | -2.6%
CCOC(=O)C1=C(C)NC(=O)NC1c1ccc2c(c1)OCCO2 (stereo not given)
  -4% | -6 | 2% | 0.5%
COc1cc(C#Cc2ccc3cc(CCCO)oc(=O)c3c2)cc(OC)c1
  / | / | -11% | 3.7%
COc1ccc(C2(c3ccc(OC)cc3)NC(=O)N(CC(=O)Nc3ccc(OC)c(OC)c3)C2=O)cc1
  5% | / | -9% | -0.9%
Cc1cc(C)cc(C(=O)N2CC(C)OC(C)C2)c1 (stereo not given)
  0% | 2 | -8% | -0.4%
O=S(=O)(NCc1ccc2c(c1)OCO2)c1ccccc1F
  -13% | / | -1% | 0.7%
O=C(CSc1nnc(CNC(=O)c2ccccc2)o1)NCc1ccccc1
  1% | / | 13% | -1.7%
COC(=O)c1ccc(OCC(=O)NCCC2=CCCCC2)c(OC)c1
  / | / | -3% | -3.7%
CN(C)S(=O)(=O)c1cccc(NC(=O)CCNC(=O)c2ccccc2Cl)c1
  -1% | 5 | 7% | -4.8%
COc1ccc2sc(-c3ccc(S(C)(=O)=O)cc3)c(-c3ccc4c(c3)OCCO4)c2c1
  / | / | 1% | 0.5%
O=c1[nH]c(C2CCN(S(=O)(=O)c3ccc(S(=O)(=O)NC4CC4)cc3)CC2)nc2c1nnn2Cc1ccccc1
  -7% | / | 0% | -3.7%
CN(CCNC(=O)C1(O)c2ccccc2NC(=O)N1c1ccccc1)Cc1ccccc1 (stereo not given)
  -1% | -6 | -10% | -4.6%
CC(C)Cc1ccc(CN2CCCC(NC(=O)CCCN3CCCC3=O)C2)cc1 (stereo not given)
  4% | / | 7% | ?
Cc1cc(C(=O)NNC(=S)NC(C)c2ccccc2)cs1 (stereo not given)
  0% | -5 | 24% | -0.8%
Cc1ccc(C(=O)C2CCN(S(=O)(=O)c3ccc(C(=O)O)cc3)CC2)cc1
  3% | / | -3% | 0.5%
C/C(=N\NC(=O)c1nnn(-c2nonc2N)c1CSc1ccc(C)cc1)c1ccco1
  -1% | / | 2% | -0.6%

(list continues)
Each structure is followed by: miR-21 reporter | GLA inh pH 4.5 | Rango release inh | Rango complex inh
COC(=O)c1c(-c2ccccc2)csc1NC(=O)c1ccco1
  -53% | 7 | -9% | 4.2%
c1coc(CNc2ncnc3c2oc2ccccc23)c1
  -4% | 6 | 1% | -0.2%
Cc1cc(-c2csc(NCc3ccccc3)n2)c(C)n1C
  0% | -1 | -10% | -1.9%
Cc1cc2c(cc1S(=O)(=O)C(C)CC(=O)NCc1ccco1)OCC(=O)N2 (stereo not given)
  2% | / | 5% | 3.1%
CCOC(=O)c1nnn(-c2nn3nnnc3c3ccccc23)c1C
  14% | 0 | 11% | 5.8%
CCOc1ccc(Nc2nc3c(C)cccc3cc2C#N)cc1
  -6% | / | ? | ?
COCCn1c(SCC(=O)Nc2ccc(C)cc2)nc2c(oc3ccccc32)c1=O
  -7% | 6 | 0% | 5.0%
COc1ccc(NC(=O)c2oc3ccc(S(=O)(=O)N4CCOCC4)cc3c2C)c(OC)c1
  -2% | / | 0% | 2.1%
Cc1onc(-c2ccccc2)c1CNC(=O)Nc1cccc(Cl)c1
  20% | -12 | 3% | 1.6%
COC(=O)c1cc(Cl)c(NC(=O)/C=C/c2ccc(Cl)cc2Cl)cc1OC
  0%&-3% | 9 | 12% | 1.0%
CCOC(=O)c1ccc(NC(=O)CC2C(=O)OCCN2CC)cc1 (stereo not given)
  -28%&-19% | 2 | -3% | -0.3%
CC(=O)Nc1ccc(S(=O)(=O)NCC2CCC(C(=O)NCCCOC(C)C)CC2)cc1 (stereo not given)
  0%&0% | / | -6% | 4.7%
CC(C)NC(=O)C1(N2C(=O)c3ccccc3C2=O)CCCC1
  / | / | -9% | 0.8%
O=[N+]([O-])c1ccc2nc(-c3cccnc3)[nH]c2c1
  -17% | / | 0% | -2.3%
CCOC(=O)c1cn(CC)c2c(ccc3ccccc32)c1=O
  -42% | / | 19% | -1.4%
S=c1[nH]cnc2scc(-c3ccc(Cl)cc3)c12
  19% | 2 | -9% | 1.0%
O=C(C1=NNCC1c1ccc(Cl)cc1)C1CO1 (stereo not given)
  2% | -1 | -4% | 0.0%
CC(NC(=O)CNC(=O)c1ccco1)c1ccccc1 (stereo not given)
  0% | / | -8% | 1.9%
C=CCOc1ccc(/C=C/C(=O)OCC(=O)N(C)C2CCS(=O)(=O)C2)cc1 (stereo not given)
  -6% | / | 11% | 3.6%
CN(c1ncc(C(F)(F)F)cc1Cl)N1C(=O)c2cccc(N)c2C1=O
  -5% | -2 | ? | ?
CC(C)(C)c1ccc(OCC(=O)NCc2ccco2)cc1
  -8% | -2 | 17% | 12%
Cc1cc(C(=O)O)c(S(C)(=O)=O)s1
  -6% | 1 | 0% | -2.5%
CCOC(=O)C1=C(CS(=O)(=O)c2ccccc2)NC(=O)NC1c1ccccc1 (stereo not given)
  -6% | 0 | -8% | -2.4%
CC1(C)Cc2nc(N3CCCC3)c(C#N)cc2CO1
  -11% | ? | 17% | -1.7%
Cc1ccc(N/C=C(\C2OC(=O)c3ccccc32)[N+](=O)[O-])c(C)c1 (stereo not given)
  -5% | 12 | 12% | 0.4%
O=C(CN1C(=O)CCSc2ccccc21)Nc1ccc(F)cc1
  -9% | -10 | -9% | 4.8%
COc1ccc(C)cc1NC(=O)CN1CCN(S(=O)(=O)c2ccc3ccccc3c2)CC1
  / | / | -6% | 4.0%
O=C(Cc1ccc(S(=O)(=O)N2CCOCC2)s1)Nc1ccccc1N1CCCC1
  0% | / | -29% | ?
CCN(C(=O)CN1C(=O)CN(C)C1=O)c1cccc2ccccc12
  / | / | -6% | -0.4%
CC(C)n1c(O)c(N=NC(=O)CNC(=O)c2cccnc2)c2ccccc21
  -8% | / | -9% | -0.3%

Part of the list above, field by field:
> Cc1cc(C(=O)O)c(S(C)(=O)=O)s1
  miR-21 reporter = -6%
  GLA inh pH 4.5 = 1
  Rango release inh = 0%
  Rango complex inh = -2.5%
> CC(C)(C)c1ccc(OCC(=O)NCc2ccco2)cc1
  miR-21 reporter = -8%
  GLA inh pH 4.5 = -2
  Rango release inh = 17%
  Rango complex inh = 12%
> CCN(C(=O)CN1C(=O)CN(C)C1=O)c1cccc2ccccc12
  miR-21 reporter = /
  GLA inh pH 4.5 = /
  Rango release inh = -6%
  Rango complex inh = -0.4%
